Screening data deposited in PubChem BioAssay by National Center for Advancing Translational Sciences (NCATS).
gsp ag: agonists of gsp mutant (McCune-Albright syndrome) | gsp mutant cells, cAMP HTRF, 30 min; control for the full effect not named in the record | Potency, µM (top dose mostly 76.9 µM), for the others: at the top dose activation (cAMP increase), usual class: activators | hit rate 0.13% among 340,000 | AID 624287; active = well fitted activation curve with a large enough effect; inconclusive = small, poorly fitted or top-dose-only effect, or another doubt; inactive = no such curve, though single readings can be large or run the other way; cell line not stated here;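 note: phosphodiesterase inhibitor Ro 20-1724 added with compounds to block cAMP breakdown; potency is the fitted concentration of half-maximal effect; nearly all actives have a fitted effect of over 60% in size; about a fifth of the inactives were tested at one dose only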
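Cells stably selected in G418 were plated at 2000/well, grown 16-24 hr, then given compounds in DMSO with the PDE inhibitor […] (300 uM solution added) for 30 min at 37C; cAMP was read by HTRF.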
Sfp PPTase inh: blocks B. subtilis Sfp PPTase activity. hit rate 3.5% among 310,000. Q9F4F7. Potency, µM, for the others: max response, negative = inhibition, most hits filed as inhibitors. Biochemical Sfp PPTase activity, qHTS; active = well fitted inhibition curve with a large enough effect; inconclusive = small, poorly fitted or top-dose-only effect, or another doubt; inactive = no such curve, though single readings can be large or run the other way;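 note: the enzyme is Sfp with the accession as filed and its product quenches rhodamine fluorescence; potency is the fitted concentration of half-maximal effect; 0% = enzyme reaction without inhibitor and -100% = no enzyme wells; top concentration of the series not given in the record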
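With Hepes-Na pH 7.6 buffer containing 10 mM MgCl2, Sfp (15 nM) modified BHQ-2-YbbR (12.5 uM) using rhodamine-CoA (5 uM). Two reads 30 minutes apart at 525/598 nm yielded each well's rate.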
Menin-MLL FL inh: inhibitors of human menin-MLL interaction, wild-type MLL peptide | 290,000 tested, under 10 active | FP activity change, % at 61.4 µM | AID 1766 | Fluorescence polarization, fluorescein-MLL peptide displacement from menin; inconclusive = falling polarisation curve, or a change in total fluorescence; inactive = total fluorescence flat and polarisation flat or rising; no compound was filed as active; the % refers to the polarisation; negative = inhibition;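 note: % of control where 0% means no effect; inhibitors lower the polarisation; unlabelled MLL peptide was the positive control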
gsp antag: gsp mutant antagonism | hit rate 0.4% among 340,000 | gsp-mutant cells, cAMP HTRF, 30 min; control for the full effect not named in the record | Potency, µM (titrated, usually from 76.9 µM), for the others: at the highest dose activity change, negative = inhibition, most hits filed as inhibitors; active = falling curve of any shape with a large fitted effect; inconclusive = falling curve, mostly with a smaller effect; inactive = flat or rising curve; cell line not stated here;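 note: intracellular cAMP measured with PDE inhibitor Ro 20-1724 present during compound exposure; potency is the fitted concentration of half-maximal effect; % is set by controls: 0 for no effect and ±100 for the full control effect; nearly all actives have a fitted effect of over 65% in size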
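Measurement of cellular cAMP by homogeneous time-resolved fluorescence following a 30 min compound exposure at 37C. The PDE inhibitor […] was present throughout; the assay buffer was DPBS with 0.05% BSA and 0.005% Tween 20.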
TRPV1 PAM: human TRPV1 potentiation; TRPV1-expressing cells, Fluo-8 calcium influx, capsaicin EC20 potentiation; host cell line not named in the record; control for the full effect not named in the record; Q8NER1; potentiation, % at 8.33 µM; hit rate 0.02% among 320,000; active means potentiation above 80%; inconclusive means 30% to 80%; inactive means below 30%; note: 0% is about no effect
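TRPV1-expressing cells were cultured overnight at 35.5C and loaded with Fluo-8 calcium dye for 40 to 90 min at room temperature. After a 10 s baseline, compound was added and calcium influx was read kinetically for 3 min (ex 480/em 520 nm).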
TRPML1 blocker: blocks the human TRPML1 channel; Q9GZU1; TRPML1-inducible cells, Ca2+ dye fluorescence, FDSS; active compounds read low; inhibition of EC80 agonist-evoked calcium signal; activity change, negative = inhibition, % (no concentration beside the values); hit rate 0.02% among 390,000; AID 624415; in the data active means activity change below about -50%; inconclusive means about -30% to -50%; inactive means above about -30%;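 note: stimulus is agonist 54-4 at its EC80 concentration; % is set by controls: 0 for no effect and ±100 for the full control effect; compound concentration not given in the record; the text of the record puts the active cut at -80%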
Target sequence (Q9GZU1 whole entry, looked up): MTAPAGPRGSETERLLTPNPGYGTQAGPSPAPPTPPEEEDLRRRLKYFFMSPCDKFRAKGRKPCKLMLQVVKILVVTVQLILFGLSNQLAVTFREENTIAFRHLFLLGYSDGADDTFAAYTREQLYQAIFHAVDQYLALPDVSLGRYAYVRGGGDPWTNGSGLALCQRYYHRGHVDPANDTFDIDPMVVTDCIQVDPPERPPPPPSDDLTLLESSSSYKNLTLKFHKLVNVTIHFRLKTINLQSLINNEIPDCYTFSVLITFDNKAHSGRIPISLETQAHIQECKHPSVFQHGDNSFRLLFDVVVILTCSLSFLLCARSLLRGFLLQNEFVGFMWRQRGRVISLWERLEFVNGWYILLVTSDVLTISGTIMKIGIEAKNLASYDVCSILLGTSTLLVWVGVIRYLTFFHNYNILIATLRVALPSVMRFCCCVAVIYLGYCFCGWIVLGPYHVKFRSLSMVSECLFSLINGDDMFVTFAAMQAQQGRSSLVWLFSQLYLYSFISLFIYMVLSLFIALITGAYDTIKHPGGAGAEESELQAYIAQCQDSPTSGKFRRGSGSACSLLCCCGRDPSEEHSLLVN
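TRPML1-DL cells, Tet-induced overnight (~16 h, 37 °C) at 1,500 cells/well, were loaded with Ca8 no-wash dye plus quencher for 45-90 min at room temperature. Compounds were pinned during FDSS kinetic reading; agonist 54-4 at EC80 (4 uM final) then added.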
ClpP mod: qHTS Assay for Activators of ClpP | ATP-dependent Clp protease proteolytic subunit (Bacillus subtilis (strain 168)), P80244 | purified B. subtilis ClpP, FRET peptide cleavage, 20 min | Potency, µM (top dose mostly 57.5 µM), for inactives: at the top dose activity change, negative = active | hit rate 1.9% among 340,000; active = well fitted falling curve with a large enough effect; inconclusive = small, poorly fitted or top-dose-only effect; inactive = no such curve, though single readings can be large or run the other way; note: potency is the fitted concentration of half-maximal effect; the source files actives as falling curves though it sought activators and does not explain the sign; nearly all actives have a fitted effect of over 65% in size; many hits overshoot -100%
Target sequence (P80244 whole entry, looked up): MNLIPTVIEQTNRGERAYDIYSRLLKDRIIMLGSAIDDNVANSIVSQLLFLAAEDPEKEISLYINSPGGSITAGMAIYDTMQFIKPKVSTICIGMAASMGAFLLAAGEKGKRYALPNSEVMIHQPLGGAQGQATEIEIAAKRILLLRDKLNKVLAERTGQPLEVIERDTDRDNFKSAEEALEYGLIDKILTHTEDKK
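ClpP 10 microg/mL final, pH 8 Tris/KCl buffer with BSA, glycerol, Tween-20; compound pinned in; FRET-FV substrate; RT 20 min; Ex320/Em430; ΔFRET vs ADEP 5.8 microM, DMSO, no enzyme.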
Active calls of the source: *; ? = inconclusive; . = no result given; & = joins results of further samples; [ ] = dose if it differs, or a comment.

SMILES	gsp ag	Sfp PPTase inh	Menin-MLL FL inh	gsp antag	TRPV1 PAM	TRPML1 blocker	ClpP mod
Cc1cc(/C=C(\C#N)C(=O)NCCc2c[nH]c3ccccc23)c(C)n1C	-20%	-2%	9.2	?	-13	15	-3.7%
Cc1cc(C(=O)COC(=O)CNC(=O)c2ccc(Cl)c(Cl)c2)c(C)n1Cc1ccco1	0%[15.4 µM]	-14%	6.3	0%	3	-4	.
N#CCSc1nnc(Cc2cccs2)n1C1CCCCC1	-39%[inhibitor]	10%	-0.9	-6%	-3	14	-4.4%
C(=N\Nc1nc2ccccc2s1)/c1cccs1	-46%[inhibitor]	-29%	5.3	-22%	1	-2	-1.5%
CC(CCc1ccccc1)NC(=O)CNC(=O)COc1ccccc1 (centres undefined)	-1%[15.4 µM]	11%	-2.6	-3%	0	1	-1.5%
COc1cc(S(=O)(=O)Nc2cc(C)cc(C)c2)ccc1F	-32%[inhibitor]	-2%	10	1%	16	-10	-2.9%
NS(=O)(=O)c1ccc(CNC(=S)Nc2ccc(F)c(Cl)c2)cc1	-31%[inhibitor]	-12%	0.9	7%	5	5	.
O=c1c(Cc2ccc(F)cc2)c(O)ccn1CC1CCCO1 (centres undefined)	3%	19%	3.7	-7%	7	10	-4.8%
COc1cccc(/C=C/C(=O)OCC(=O)NCCC2=CCCCC2)c1	-13%[15.4 µM]	13%	2.9	10%	0	-21	.
O=C(COC(=O)CN1C(=O)C2CCCCC2C1=O)NNC(=O)c1ccc(Cl)cc1 (centres undefined)	-84%[inhibitor]	.	.	8%	7	-13	-0.9%
Cc1ccccc1/C=C\c1nc2ccccc2c(=O)n1Cc1ccccc1	?	-6%	5.9	-14%	-14	0	-17%
O=C(O)CCN1C(=O)C2C3C=CC(C3)C2C1=O (centres undefined)	-1%	5%	3.9	1%	19	4	-3.6%
CCOc1ccccc1N(CC(=O)NC1CCCCC1)S(=O)(=O)c1ccc(C)cc1	-13%	5%	0.4	?	2	10	.
C#CCOCCOCCOCCNc1nc(N2CCN(C(=O)C([C@@H](C)CC)n3cc(C(N)CO)nn3)CC2)nc(N2CCN(C(=O)[C@H](CCC(=O)O)n3cc(C(N)[C@H](C)CC)nn3)CC2)n1 (some centres undefined)	.	-10%	-0.5	.	-17	.	.
O=C(Nc1cccc(F)c1)C1CCCN(S(=O)(=O)c2cnc[nH]2)C1 (centres undefined)	-6%	11%	.	1%	22	19	-1.9%
CC(C)Cn1c2c(c(O)c(C(=O)Nc3nccs3)c1=O)CCCC2	-47%[inhibitor]	4%	1.2	-27%	9	-12	-14%
O=C(Cc1ccccc1)Nc1c(C(=O)N2CCCCCC2)cnn1-c1ccccc1	-29%	17%	0.1	14%	9	22	-1.4%
C/C(CCN1CCCCc2nc(C)c(C)cc21)=N\O[C@@H](C)c1cn([C@H](CO)Cc2ccccc2)nn1	.	12%&6%&6%	-4.1[11.7 µM]	.	?	.	.
O=[N+]([O-])c1ccc(S(=O)(=O)N2CCN=C2SCc2cccnc2)cc1	-15%[15.4 µM]	13%	-0.5	12%	11	7	.
CCCNC(=O)c1nn2cc(Br)cnc2c1Br	15%	-1%	-0.8	4%	16	19	-0.2%
Cc1cccc(NC(=O)c2cc(-c3cc(C)cc(C)c3O)n[nH]2)c1	2%	14%	-0.3	-17%	-7	.	-2.5%
COCCN(C(=O)COC(=O)c1oc2ccc(OC)cc2c1C)c1c(N)n(Cc2ccccc2)c(=O)[nH]c1=O	0%[15.4 µM]	18%	.	-1%	0	10	13µM*
O=C(NCCc1ccccc1)c1c[nH]c2ccccc2c1=O	8%	.	.	.	.	9	1.5%
COc1c(C)cc(Br)cc1C(=O)Nc1ccc(Cc2ccncc2)cc1	4%	-30%	-0.1	?	-3	0	.
CC1(C)Cc2ccccc2-c2nnc(SCC(=O)N3CCc4ccccc43)n21	7%	4%	-0.2	4%	23	3	-3.3%
CCCC(=O)NC(=S)Nc1ccc(NC(=O)C(C)C)c(OC)c1	11%	11%	-1.1	-15%	-10	-9	-1.8%
CCOC(=O)N1CCC(NC(=O)Cn2cccc2C(=O)c2ccccc2)CC1	-6%	4%	1.6	-8%	19	1	-0.9%
O=C(COc1ccc(Br)cc1)NCCNC(=O)c1cccnc1	25%[15.4 µM]	14%	2.1	12%	7	41	-2.7%
O=C(c1ccccc1)c1ccc(OCC(O)CNC2CCCc3ccccc32)cc1 (centres undefined)	-1%	-10%	2.3	-14%	3	0	-0.5%
COc1ccc(C2C(C#N)=C(N)Oc3c2c(C)nn3-c2ccccc2)cc1Cn1nc(C)c([N+](=O)[O-])c1C (centres undefined)	?	-16%	5.2	-7%	13	23	0.9%
O=C(c1cc2nc(C3CC3)cc(C(F)(F)F)n2n1)N1CCCC1	-29%	14%	0.3	3%	-7	-2	1.2%
O=C(COc1ccccc1)Nc1ccccc1C(=O)NCc1ccco1	-12%	-27%	-1.0	-5%	26	-24	-19%
O=c1[nH]c2cc3c(cc2cc1CN(CCN1CCOCC1)C(=S)NCC1CCCO1)OCO3 (centres undefined)	22%	11%	-0.6	-5%	-11	0	4.0%
COc1ccc(-n2c(N3CCN(C)CC3)nc3sc4c(c3c2=O)CCCCC4)cc1	5%	-5%	0.2	0%	-6	-12	-6.2%
CCC(=O)NC(NC(=O)CC)C(Cl)Cl	2%	22%	3.7	4%	1	-7	-2.2%
COc1ccccc1N1CCN(C(=O)c2ccc(NC(C)=O)cc2)CC1	?	8%	6.4	-9%	9	26	-0.7%
CCCCN1CN=C(Nc2nc3ccccc3o2)NC1	5%	-2%	-1.6	-9%	-2	7	2.8%
Cc1ccc(-c2nnn(CC(=O)N(Cc3ccco3)C(C(=O)NC(C)(C)C)c3ccncc3)n2)o1 (centres undefined)	2%	13%	1.5	-10%	6	18	.
CC(C)(C)N1C(=O)c2ccc(C(=O)Nc3ccc(O)cc3)cc2C1=O	-12%[15.4 µM]	7%	-0.9	4%	-7	4	-4.2%
NC(=O)c1nsc(C(=O)N(c2ccc(F)cc2)C(C(=O)NCC2CCCO2)c2c[nH]c3ccccc23)c1N (centres undefined)	1%[15.4 µM]	-1%	-0.6	-26%	24	-9	.
Cc1ccccc1NC(=O)CSc1nnc(-c2ccco2)c(-c2ccco2)n1	-2%	10µM*	?	3%	7	0	0.1%
O=C(Oc1cccc(NC(=O)c2cccs2)c1)c1cccc(S(=O)(=O)N2CCCC2)c1	-1%	8%	0.0	-8%	5	-4	-20%
CC1(O)CC(C)(C)C(C#N)C(=O)N1 (centres undefined)	7%	.	.	6%	.	-14	.
N#C/C(=C\Nc1ccc(Cl)cc1)S(=O)(=O)c1ccccn1	-3%[15.4 µM]	13%	2.1	-8%	-6	-5	-0.4%
COc1ccc(-n2c(N)c(C(=O)NCc3cccnc3)sc2=S)cc1	10%	18%	-0.6	-5%	?	2	1.3%
CCCN1CCN(C(=O)Nc2cccc(C(F)(F)F)c2)CC1	39%	4%	0.4	6%	-16	-6	.
Cc1c(C)c2ccc(OC(C)C(=O)NCc3ccccn3)cc2oc1=O (centres undefined)	12%	5%	1.0	-1%	16	-4	4.0%
O=C(CCC(=O)OCC(=O)c1ccc(Cl)cc1Cl)Nc1cccc2cccnc12	-11%	-5%	2.5	-8%	?	-7	-1.3%
COc1cccc(NC(=O)CN2C(=O)C(=O)N(C3CCCC3)C2=O)c1	-2%[15.4 µM]	.	.	6%	.	-11	-4.9%
COc1cccc(CNc2ccc(F)c(Cl)c2)c1O	-20%	18%	?	-25%	16	49	-0.5%
Later entries.
SMILES	gsp ag	Sfp PPTase inh	Menin-MLL FL inh	gsp antag	TRPV1 PAM	TRPML1 blocker	ClpP mod
CCOC(=O)Cn1cc(/C=C/[N+](=O)[O-])c2ccccc21	-6%	-26%	4.6	-14%	-5	-2	2.0%
CCOC(=O)N[C@H](Cc1c[nH]c2ccccc12)C(=O)NC1CC1	1%[15.4 µM]	2%	1.6	-1%	-14	11	0.1%
C[C@H]1CN([C@@H](C)CO)C(=O)CCCn2nncc2CO[C@@H]1CN(C)C(=O)Cc1ccccc1	11%	.	.	.	.	1	1.1%
COc1ccccc1C(=O)NCCC(=O)NC1CCCCC1C (centres undefined)	7%	.	.	9%	22	6	-2.8%
Cc1ccc2nc(C)cc(C(=O)N3CCCC(CO)(Cc4ccccc4C)C3)c2c1 (centres undefined)	-56%[inhibitor]	-6%	3.3	1%	-5	-5	.
CC(=O)c1ccccc1NC(=O)CC1(CC(=O)O)CCCCC1	11%[15.4 µM]	11%	0.0	-3%	0	-3	.
O=C(Cc1coc2cc(O)ccc12)NNC(=O)c1cccs1	-2%	.	.	1%	.	12	.
Cc1ccc(NC(=S)N/N=C2/CCCc3c(C)cc(C)cc32)cc1	-1%	-1%	-1.1	-31%	0	-1	0.6%
COc1ccc(-c2nc(NC(=O)c3nc4nccc(C)n4n3)sc2C)cc1	6%	-15%	-8.4	-23%	-4	6	1.2%
COc1ccccc1CNC(=O)c1ccc2nc(N3CCOCC3)sc2c1	-17%	10%	0.9	-6%	-30	19	-7.8%
CCc1nnc(NS(=O)(=O)c2ccc(N/C=C/C(=O)c3ccc(C)cc3)cc2)s1	-3%[15.4 µM]	7%	12	?	7	-16	0.9%
CN(CC(=O)Nc1ccc(Cl)c(Cl)c1)C(=O)CC1OC(=O)c2ccccc21 (centres undefined)	-16%	.	.	-13%	3	-18	-1.1%
Cc1cccc(CCNC(=O)C2CCN(S(=O)(=O)c3cccc4cccnc34)CC2)c1	6%	18%	.	-13%	1	46	-0.2%
O=C(COC(=O)c1cc([N+](=O)[O-])ccc1Cl)NC1CCCC1	28%	10%	-0.8	-4%	14	-3	1.8%
CCN(C(=O)COC(=O)c1cccc(NS(=O)(=O)c2ccc(F)c(F)c2)c1)C1CCS(=O)(=O)C1 (centres undefined)	.	17%	3.9	.	7	.	.
CCc1cc2cc3c(cc2nc1SCC(=O)N1CCN(C(=O)c2ccco2)CC1)OCO3	7%	-28%	-1.3	-1%	-14	-18	-26%
